# UUG fidelity – modulators of yeast start codon fidelity, primary screen, whole organism, S. cerevisiae, single point, plate reader; S. cerevisiae UUG-firefly luciferase reporter, luminescence/redox ratio; activity score, % at 18.7 µM; actives 0.13% (n = 350,000);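 active = replicate mean at a twofold rise or more, about +100% in these data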;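 note: firefly luciferase made from a UUG start codon reports start codon fidelity; reporter light over untreated wells divided by growth signal over untreated wells; some hits fall short of that in this replicate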
# Env fusion inh – inhibitors of HIV-1 Env-driven cell-cell fusion, primary screen, HeLa-JRFL effector, CEM21 target cells, luciferase | inhibition, % at 12.3 µM | actives 1.1% (n = 360,000);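 active = mean replicate inhibition score of at least 50 and every replicate individually at or above 50; inconclusive = only one of the two criteria met; inactive = mean below 50 and not all replicates reaching 50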;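 note: 0% = plate neutral controls and 100% = maraviroc near 300 nM; one replicate is shown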
# An asterisk follows results filed as active; ? = inconclusive; & = joins results of further samples; [ ] = another dose, or the depositor's remark. An excerpt; rates above refer to the full screens.
# A first look (two entries):
UUG fidelity,Env fusion inh,Molecule
9,33[16.7 µM],Cc1ccc(S(=O)(=O)Nc2ccc3c(c2)C(=O)N([C@@H](C)CO)C[C@H](C)[C@H](CN(C)Cc2ccc(C(F)(F)F)cc2)OCCCC[C@H](C)O3)cc1
-17,0[16.7 µM],C=CCNC(=O)[C@@H]1[C@H]2C(=O)O[C@H](c3ccccc3)[C@H](c3ccccc3)N2[C@H](c2ccc(OCCO)cc2)[C@@]12C(=O)N(C(=O)OCCOC)c1ccc(C#Cc3ccc(OC)cc3)cc12

# Main list, from the first entry:
UUG fidelity,Env fusion inh,Molecule
9,33[16.7 µM],Cc1ccc(S(=O)(=O)Nc2ccc3c(c2)C(=O)N([C@@H](C)CO)C[C@H](C)[C@H](CN(C)Cc2ccc(C(F)(F)F)cc2)OCCCC[C@H](C)O3)cc1
-17,0[16.7 µM],C=CCNC(=O)[C@@H]1[C@H]2C(=O)O[C@H](c3ccccc3)[C@H](c3ccccc3)N2[C@H](c2ccc(OCCO)cc2)[C@@]12C(=O)N(C(=O)OCCOC)c1ccc(C#Cc3ccc(OC)cc3)cc12
6,12[16.7 µM],C[C@@H]1CCCCO[C@H](CN(C)C(=O)c2ccncc2)[C@H](C)CN([C@@H](C)CO)C(=O)c2cc(NS(=O)(=O)c3ccccc3)ccc2O1
4,11[16.7 µM],CCCC#Cc1cnc2c(c1)C(=O)N([C@@H](C)CO)C[C@@H](C)[C@H](CN(C)C(=O)NCCC)O2
16,-5[16.7 µM],O=C(O)C[C@H]1C[C@@H]2c3cc(NC(=O)Nc4ccccc4)ccc3O[C@@H]2[C@@H](CO)O1
-9,-6[16.7 µM],O=C(N[C@@H]1CC[C@@H](CC(=O)N2CCCCC2)O[C@H]1CO)c1cccc(F)c1
4,1[16.7 µM],COCC#Cc1ccc2c(c1)O[C@H](CN(C)S(C)(=O)=O)[C@H](C)CN([C@@H](C)CO)S2(=O)=O
2,31[16.7 µM],COc1ccc(S(=O)(=O)Nc2ccc3c(c2)CC(=O)N([C@@H](C)CO)C[C@@H](C)[C@@H](CN(C)Cc2ccc(C(F)(F)F)cc2)O3)cc1
6,-11[16.7 µM],C[C@@H]1CN([C@H](C)CO)C(=O)Cc2cc(NS(=O)(=O)c3ccccc3)ccc2O[C@H]1CN(C)C(=O)Nc1ccccc1
-1,-1[16.7 µM],C[C@H](CO)N1C[C@H](C)[C@@H](CN(C)Cc2cccnc2)Oc2ncc(C#CC3(O)CCCC3)cc2C1=O
11,15[16.7 µM],Cc1cc(C(=O)Nc2cccc3c2O[C@H](CN(C)Cc2ccc(Oc4ccccc4)cc2)[C@@H](C)CN([C@@H](C)CO)C3=O)n(C)n1
18,-15[16.7 µM],Cc1noc(C)c1S(=O)(=O)Nc1ccc2c(c1)CC(=O)N([C@H](C)CO)C[C@H](C)[C@H](CN(C)S(=O)(=O)c1cn(C)cn1)O2
8,?,C[C@@H]1CN([C@H](C)CO)C(=O)c2cc(NC(=O)Nc3ccccc3)ccc2O[C@@H](C)CCCCO[C@H]1CN(C)Cc1ccc(Cl)c(Cl)c1
10,6[16.7 µM],CCCN(C)C[C@@H]1OCCCC[C@H](C)Oc2ccc(NC(=O)Nc3ccc(F)cc3)cc2C(=O)N([C@@H](C)CO)C[C@@H]1C
0,6[16.7 µM],Cc1noc(C)c1NC(=O)N(C)C[C@H]1OCCCC[C@@H](C)Oc2ccc(NS(=O)(=O)c3cccs3)cc2C(=O)N([C@@H](C)CO)C[C@H]1C
-7,-3[16.7 µM],COc1cccc(C(=O)Nc2ccc3c(c2)OC[C@@H](C)NC[C@H](C)[C@@H](OC)CN(C)C3=O)c1
-7,-13[16.7 µM],COC(=O)C[C@H]1CC[C@@H]2[C@@H](COc3ccc(NS(=O)(=O)c4ccc(C)cc4)cc3C(=O)N2C)O1
3,8[16.7 µM],C[C@@H]1CN([C@H](C)CO)C(=O)Cc2cc(NS(C)(=O)=O)ccc2O[C@@H]1CN(C)S(=O)(=O)c1ccc(Cl)cc1
-17,9[16.7 µM],O=C(C[C@H]1C[C@@H]2c3cc(NC(=O)NC4CCCCC4)ccc3O[C@@H]2[C@@H](CO)O1)NCc1cccnc1
-16,1[16.7 µM],CCC(=O)N[C@H]1CC[C@H](CC(=O)NCCN2CCCCC2)O[C@@H]1CO
3,-18[16.7 µM],C[C@@H]1CN([C@@H](C)CO)S(=O)(=O)c2ccc(C#Cc3ccncc3)cc2O[C@@H]1CN(C)C(=O)C1CCC1
-35&-16,-2&-8[16.7 µM],CNC(=O)C[C@H]1CC[C@@H]2[C@H](COc3ccc(NC(=O)c4cccc(F)c4)cc3C(=O)N2C)O1
-9,-11[16.7 µM],C[C@H](NC(=O)C[C@@H]1C[C@@H]2c3cc(NC(=O)NC4CCCC4)ccc3O[C@@H]2[C@@H](CO)O1)c1ccccc1
-2,-11[16.7 µM],CN(C)Cc1cn(CC[C@@H]2CC[C@@H](NS(=O)(=O)c3ccccc3)[C@@H](CO)O2)nn1
-1,-12[16.7 µM],C[C@H](CO)N1C[C@H](C)[C@@H](CN(C)S(=O)(=O)c2ccccc2)OCCCC[C@H](C)Oc2ccc(NC(=O)C3CCCCC3)cc2C1=O
6,1[16.7 µM],C[C@H]1CCCCO[C@H](CN(C)S(=O)(=O)c2ccc(Cl)cc2)[C@@H](C)CN([C@@H](C)CO)C(=O)c2cc(NS(=O)(=O)c3cn(C)cn3)ccc2O1
-9,-10[16.7 µM],CC(C)(C)c1ccc(N2C(=O)CSC2c2ccccc2)cc1 (stereo not given)
-3,-21[16.7 µM],COc1ccc(S(=O)(=O)Nc2ccc3c(c2)C(=O)N([C@@H](C)CO)C[C@H](C)[C@@H](CN(C)C(=O)c2ccncc2)OCCCC[C@@H](C)O3)cc1
-17,-6[16.7 µM],C[C@@H]1CCCCO[C@H](CN(C)C(=O)Cc2ccccc2)[C@@H](C)CN([C@H](C)CO)C(=O)c2cc(NC(=O)Nc3ccc(C(F)(F)F)cc3)ccc2O1
-21,80*[16.7 µM],O=C(C[C@H]1C=C[C@@H](NC(=O)c2cccc(F)c2)[C@@H](CO)O1)NCc1ccc(Oc2ccccc2)cc1
-5,18[16.7 µM],N#C[C@@H]1[C@H](c2ccc(C3=CCCC3)cc2)[C@H](CO)N1C(=O)C1CCC1
-1,-9[16.7 µM],C[C@H]1CN([C@@H](C)CO)C(=O)Cc2cc(NS(C)(=O)=O)ccc2O[C@@H]1CN(C)Cc1ccncc1
23,-14[16.7 µM],Cc1ccc(S(=O)(=O)N(C)C[C@H]2OCCCC[C@H](C)Oc3ccc(NS(=O)(=O)c4cccs4)cc3C(=O)N([C@@H](C)CO)C[C@H]2C)cc1
1,12[16.7 µM],O=C(CN1CCOCC1)NCC[C@H]1CC[C@H](NC(=O)c2ccccc2F)[C@@H](CO)O1
-2,-1[16.7 µM],[N-]=[N+]=NCc1ccccc1C[C@]1(C(=O)NCCN2CCOCC2)COC(c2ccc(OCCCO)cc2)=N1
1,-15[16.7 µM],COc1cccc(NC(=O)N[C@@H]2C=C[C@H](CC(=O)Nc3ccccc3)O[C@H]2CO)c1

# Complete entries, looked up by structure. Order of screens: UUG fidelity | Env fusion inh
# COc1cccc(C(=O)Nc2ccc3c(c2)OC[C@@H](C)NC[C@H](C)[C@@H](OC)CN(C)C3=O)c1 is listed with -7 | -3[16.7 µM]
# C[C@H]1CCCCO[C@H](CN(C)S(=O)(=O)c2ccc(Cl)cc2)[C@@H](C)CN([C@@H](C)CO)C(=O)c2cc(NS(=O)(=O)c3cn(C)cn3)ccc2O1 is listed with 6 | 1[16.7 µM]
# C[C@@H]1CCCCO[C@H](CN(C)C(=O)Cc2ccccc2)[C@@H](C)CN([C@H](C)CO)C(=O)c2cc(NC(=O)Nc3ccc(C(F)(F)F)cc3)ccc2O1 is listed with -17 | -6[16.7 µM]
# CCCC#Cc1cnc2c(c1)C(=O)N([C@@H](C)CO)C[C@@H](C)[C@H](CN(C)C(=O)NCCC)O2 is listed with 4 | 11[16.7 µM]
# COc1cccc(NC(=O)N[C@@H]2C=C[C@H](CC(=O)Nc3ccccc3)O[C@H]2CO)c1 is listed with 1 | -15[16.7 µM]

# The list continues:
UUG fidelity,Env fusion inh,Molecule
-6,-1[16.7 µM],O=C(NCC[C@H]1CC[C@H](NC(=O)C2CCCC2)[C@@H](CO)O1)c1cc(Cl)cc(Cl)c1
15,5[16.7 µM],C[C@H](CO)N1C[C@H](C)[C@@H](CN(C)Cc2ccccc2)Oc2ccc(NS(C)(=O)=O)cc2CC1=O
-13,5[16.7 µM],CC(C)NC(=O)Nc1ccc2c(c1)C(=O)N([C@H](C)CO)C[C@H](C)[C@H](CN(C)CC1CCCCC1)O2
-1,-5[16.7 µM],COc1ccc(S(=O)(=O)N[C@@H]2CC[C@@H](CCNC(=O)CN3CCOCC3)O[C@@H]2CO)cc1
32,-4[16.7 µM],C[C@@H]1CCCCO[C@H](CN(C)S(C)(=O)=O)[C@@H](C)CN([C@@H](C)CO)C(=O)c2cc(NS(=O)(=O)c3ccccc3)ccc2O1
-6,6[16.7 µM],O=C(C[C@@H]1C=C[C@H](NC(=O)CN2CCOCC2)[C@@H](CO)O1)NC1CCC1
6,-27[16.7 µM],C[C@@H]1CN([C@@H](C)CO)C(=O)Cc2cc(NC(=O)NC3CCCCC3)ccc2O[C@H]1CN(C)C(=O)Nc1ccc2c(c1)OCO2
3,-50[16.7 µM],C/C=C/c1ccc2c(c1)O[C@H](CN(C)C(=O)Cc1ccncc1)[C@@H](C)CN([C@@H](C)CO)S2(=O)=O
12,-38[16.7 µM],CC(C)NC(=O)N(C)C[C@H]1Oc2cc(C#CC3CC3)ccc2S(=O)(=O)N([C@H](C)CO)C[C@@H]1C
3,-13[16.7 µM],O=C(NCC[C@H]1CC[C@@H](NC(=O)c2cnccn2)[C@H](CO)O1)Nc1ccc(Cl)cc1
10,13[16.7 µM],Cc1noc(C)c1NC(=O)Nc1ccc2c(c1)C(=O)N([C@H](C)CO)C[C@H](C)[C@@H](CN(C)S(=O)(=O)c1cn(C)cn1)OCCCC[C@H](C)O2
-7,-8[16.7 µM],COCC(=O)N(C)C[C@H]1Oc2cc(-c3ccc(C#N)cc3)ccc2S(=O)(=O)N([C@@H](C)CO)C[C@H]1C
-7,8[16.7 µM],C[C@H](CO)N1C[C@H](C)[C@H](CN(C)Cc2ccncc2)Oc2ccc(NC(=O)C3CCCCC3)cc2C1=O
0,2[16.7 µM],COCC(=O)Nc1ccc2c(c1)OC[C@H](C)N(C(=O)c1ccncc1)C[C@@H](C)[C@H](OC)CN(C)C2=O
-24,2[16.7 µM],O=C(Cc1cccnc1)N[C@H]1CC[C@@H](CCn2cc(Cc3ccccc3)nn2)O[C@@H]1CO
18,-10[16.7 µM],COc1ccc(CN(C)C[C@H]2OCCCC[C@@H](C)Oc3ccc(NC(=O)Cc4ccccc4)cc3C(=O)N([C@@H](C)CO)C[C@H]2C)cc1
6,43[16.7 µM],C[C@@H]1CN([C@@H](C)CO)C(=O)Cc2cc(NC(=O)CCCCCC(=O)Nc3ccccc3N)ccc2O[C@@H]1CN(C)Cc1ccc(Oc2ccccc2)cc1
12,-6[16.7 µM],C[C@H]1CN([C@@H](C)CO)C(=O)Cc2cc(NS(=O)(=O)c3cn(C)cn3)ccc2O[C@@H]1CN(C)S(=O)(=O)c1cn(C)cn1
2,1[16.7 µM],CN1C(=O)c2cc(NC(=O)c3ccc(F)cc3)ccc2OC[C@H]2O[C@H](CC(=O)O)CC[C@@H]21
5,-12[16.7 µM],CO[C@H]1CN(C)C(=O)c2ccc(NS(=O)(=O)CC(F)(F)F)cc2OC[C@H](C)N(C(=O)c2ccc3c(c2)OCO3)C[C@H]1C
-15,-146[16.7 µM],COCCOC(=O)N1C(=O)[C@@]2(c3ccccc31)[C@H](c1ccccc1OCCO)N1[C@H](c3ccccc3)[C@H](c3ccccc3)OC(=O)[C@H]1[C@@H]2C(=O)N1CCCCCCC1
5,-4[16.7 µM],C[C@@H]1CN([C@@H](C)CO)C(=O)c2cccc(NS(C)(=O)=O)c2O[C@H]1CN(C)S(=O)(=O)c1ccccc1
-4,6[16.7 µM],Cc1ccc(S(=O)(=O)Nc2ccc3c(c2)C(=O)N([C@@H](C)CO)C[C@H](C)[C@H](CN(C)S(=O)(=O)c2ccccc2)O3)cc1
-14,-121[16.7 µM],Cc1ccc(S(=O)(=O)Nc2ccc3c(c2)C(=O)N([C@H](C)CO)C[C@@H](C)[C@@H](CN(C)C(=O)Nc2ccccc2)OCCCC[C@H](C)O3)cc1
23,49[16.7 µM],CC(C)NC(=O)N[C@H]1CC[C@H](CC(=O)NCc2ccc(Oc3ccccc3)cc2)O[C@H]1CO
12,-27[16.7 µM],CO[C@H]1CN(C)C(=O)c2cc(NC(=O)Nc3ccccc3)ccc2OC[C@@H](C)N(C(C)=O)C[C@@H]1C
-8,0[16.7 µM],C[C@H](CO)N1C[C@H](C)[C@H](CN(C)C(=O)Nc2ccccc2F)Oc2cc(-c3cccc(C#N)c3)ccc2S1(=O)=O
9,24[16.7 µM],C[C@@H]1CN([C@@H](C)CO)C(=O)Cc2cc(NS(=O)(=O)c3ccc(Cl)cc3)ccc2O[C@H]1CN(C)Cc1ccc2c(c1)OCO2
2,17[16.7 µM],CCC(=O)N(C)C[C@H]1Oc2cc(-c3cccc(F)c3)ccc2S(=O)(=O)N([C@@H](C)CO)C[C@@H]1C
-2,7[16.7 µM],CC(C)NC(=O)Nc1ccc2c(c1)C(=O)N([C@H](C)CO)C[C@@H](C)[C@@H](CN(C)Cc1ccc3c(c1)OCO3)OCCCC[C@@H](C)O2
8,-6[16.7 µM],C[C@@H]1CN([C@H](C)CO)C(=O)c2cc(NC(=O)Nc3ccccc3)ccc2O[C@H]1CN(C)Cc1ccncc1
-1,11[16.7 µM],COc1ccc(S(=O)(=O)Nc2ccc3c(c2)C(=O)N([C@H](C)CO)C[C@H](C)[C@H](CN(C)S(=O)(=O)c2ccc(OC)cc2)OCCCC[C@H](C)O3)cc1
26,-7[16.7 µM],CN(C)CCCCCCNC(=O)[C@@H]1C[C@@H]2C(=O)NCC(=O)N2[C@@H]1c1cccc(OCCO)c1
